RGS16-Gao – modulates binding between human RGS16 and Galphao | O15492+P09471 | binding response (% of control), % at 10 µM | bead-based flow cytometry RGS16-Galphao binding, fluorescence; actives lie on both sides | 220,000 compounds, 0.38% hits;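 active = below 25% or above 175%, edge rows of some plates excepted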;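 note: Galphao activated by GDP with aluminum fluoride before binding; 100% = wells without compound and 0% = beads without RGS; some results beyond the cut were filed as inactive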
Target sequence (O15492 whole entry, looked up): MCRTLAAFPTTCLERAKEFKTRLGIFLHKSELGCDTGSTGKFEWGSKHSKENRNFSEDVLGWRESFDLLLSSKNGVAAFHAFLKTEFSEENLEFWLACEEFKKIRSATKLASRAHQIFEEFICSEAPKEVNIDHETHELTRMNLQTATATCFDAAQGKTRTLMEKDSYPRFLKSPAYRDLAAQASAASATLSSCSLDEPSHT
Target sequence (P09471 whole entry, looked up): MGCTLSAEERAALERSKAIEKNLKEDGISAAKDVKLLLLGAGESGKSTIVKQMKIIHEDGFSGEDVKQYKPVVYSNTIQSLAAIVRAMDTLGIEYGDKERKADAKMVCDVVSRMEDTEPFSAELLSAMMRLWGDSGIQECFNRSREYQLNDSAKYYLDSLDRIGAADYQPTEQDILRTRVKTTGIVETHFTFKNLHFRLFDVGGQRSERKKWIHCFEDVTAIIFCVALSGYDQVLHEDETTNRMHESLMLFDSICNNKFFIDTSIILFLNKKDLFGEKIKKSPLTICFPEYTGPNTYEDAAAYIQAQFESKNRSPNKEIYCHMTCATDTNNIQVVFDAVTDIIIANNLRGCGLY
GALR2 agonist – activates the human galanin receptor 2; O43603; GALR2-expressing cells, agonist activation read-out; activation, %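 (tested at 5 µM)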; 140,000 compounds, 0.48% hits; AID 803;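 active = above mean plus 3 SD of all compounds, about 5% in these data, not always enough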;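 note: 0% = vehicle buffer wells and 100% = reference agonist at full effect; tested in CHO reporter cells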
Target sequence (O43603 whole entry, looked up): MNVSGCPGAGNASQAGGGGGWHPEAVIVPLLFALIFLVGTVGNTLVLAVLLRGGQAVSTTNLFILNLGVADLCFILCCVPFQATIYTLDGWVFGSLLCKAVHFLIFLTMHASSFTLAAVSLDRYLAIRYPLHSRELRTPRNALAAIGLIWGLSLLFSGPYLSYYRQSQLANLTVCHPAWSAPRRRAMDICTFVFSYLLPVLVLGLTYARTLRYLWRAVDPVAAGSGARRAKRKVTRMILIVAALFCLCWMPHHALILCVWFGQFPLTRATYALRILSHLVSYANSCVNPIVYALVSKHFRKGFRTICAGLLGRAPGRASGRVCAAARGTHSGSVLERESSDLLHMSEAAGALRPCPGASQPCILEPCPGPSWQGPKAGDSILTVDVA
PKD1 inh – inhibitors of human PKD1 kinase | PKD1 kinase fluorescence polarization assay | inhibition, %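 (about 10 µM by stock and volumes)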 | 200,000 compounds, 0.056% hits | AID 797;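 active = inhibition of 50% or more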;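 note: controls were vehicle for no effect and a reference inhibitor for full effect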
Insulin prom inh – TRM-6 insulin promoter activity inhibition. 130,000 compounds, 0.9% hits. inhibition, % at 2 µM. TRM-6 cells (human fetal islet line), insulin promoter-eGFP reporter, imaging; reporter expression induced with tamoxifen;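 active = inhibition above the mean plus 3 SD, with well images judged a real hit on visual review, cut at about 60% in these data, passing the limit was not always enough; inconclusive = inhibition over the cutoff but images rejected on review; inactive = inhibition not above the cutoff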
HSV augment – HSV replication enhancement; HSV replication augmentation in cells, fold increase; maximum fold increase; 220,000 compounds, 0.005% hits;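 active = peak rise of 1.5-fold or more in the series; inconclusive = self-fluorescent or not available for retest; tested in PC3 cells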;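 note: first round at 10 µM; read as green reporter fluorescence; hits show the peak of a series up to 25 µM; 1 = signal of infected wells without compound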
Insulin prom inh cell count – recorded beside Insulin prom inh, whose call it bears; normalized cell count, %; measured here: cell count, toxicity; reference of the scale not given here;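 cells exposed to compound for 48 h; stained nuclei by imaging scaled within each plate; lower means fewer cells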
HSV augment primary fold – second read-out of HSV augment, no call of its own (marks repeat the call); fold increase; compound at 10 µM; measured here: primary screen fold increase 10 uM; tested in PC3 cells;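 GFP signal in the first replicate; 1 = infected wells without compound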
The depositor's hits bear a star; i = inactive; ? = inconclusive; . = no result given.

SMILES	RGS16-Gao	GALR2 agonist	PKD1 inh	Insulin prom inh	Insulin prom inh cell count	HSV augment	HSV augment primary fold
COc1ccc(OCC(O)Cn2ccnc2C)cc1 (centres undefined)	104	-0.7	-5	-8	84	i	1
O=C(Nc1ccccc1NS(=O)(=O)c1ccc(F)cc1)C1CCCC1	97	.	1	.	.	i	0.95
CC(Sc1nnc(-c2ccc(Cl)cc2)n1C)C(N)=O (centres undefined)	103	-2.4	-4	.	.	i	0.96
O=C(NCc1ccccc1C(F)(F)F)C1CC(c2ccc(C(F)(F)F)cc2)=NO1 (centres undefined)	91	.	.	.	.	i	0.59
O=C(Cc1n[nH]c(=O)c2ccccc12)NCc1ccc(Cl)cc1	114	.	.	.	.	i	1
N#Cc1nc(Cc2cccc3ccccc23)oc1N1CCC(C(N)=O)CC1	102	-0.2	-5	.	.	i	1
CC(CNc1ccc([N+](=O)[O-])c2cccnc12)Nc1c([N+](=O)[O-])cc(C(F)(F)F)cc1[N+](=O)[O-] (centres undefined)	134	-1.9	-1	-26	83	i	0.97
COc1ccc(OC)c(S(=O)(=O)N2CCCc3ccccc32)c1	100	-1.1	9	31	51	i	1
O=C(/C=C/c1cccc([N+](=O)[O-])c1)NCCSCc1ccc(Cl)cc1	100	-1.1	1	-16	120	i	0.87
CCOc1ccccc1N1CCN(S(=O)(=O)c2ccc3c4c(cccc24)C(=O)N3)CC1	97	0.4	-1	16	101	i	0.9
COc1ccc(C2NC(c3ccc(OC)c(OC)c3OC)C(C)C(=O)C2C)c(OC)c1OC (centres undefined)	102	0.1	-6	-63	99	i	1
CCn1c(CSc2nc(C)cs2)nc2cc(S(=O)(=O)N(C)C)ccc21	102	-0.6	1	-43	104	i	0.84
CCOCCCn1c(=S)[nH]c2cc(C(=O)N3CCN(C)CC3)ccc2c1=O	105	0.2	12	.	.	i	0.86
C=CCn1cnc2c(c1=O)c1nc3ccccc3nc1n2-c1ccc(C)cc1	83	1.1	-8	-33	92	.	.
O=C(NC(NC(=S)Nc1ccccc1O)C(Cl)(Cl)Cl)c1ccco1 (centres undefined)	103	0.9	3	14	116	i	0.94
Cc1ccc(N2CCN(c3ccc(C)cc3)C2c2cccnc2)cc1	102	-0.1	-1	-14	103	i	0.89
CN(C)c1ccc(C2N3CC4(C)CN2CC(C)(C3)C4O)cc1 (centres undefined)	92	-1.8	-7	.	.	i	0.97
COc1ccc(C(=O)Nc2nnc(-c3ccccc3)o2)cc1OC	101	0.0	-12	.	.	i	0.93
Cc1cccc(Cl)c1NC(=O)N1CCN(c2ccnc3cc(Cl)ccc23)CC1	96	.	.	.	.	i	0.93
C=CCn1c2ccccc2c2nnc(SCC(=O)OCN3C(=O)c4ccccc4C3=O)nc21	104	-1.0	-4	44	84	i	0.95

Some of these compounds in order of count of non-hydrogen atoms, smallest number first.
SMILES	RGS16-Gao	GALR2 agonist	PKD1 inh	Insulin prom inh	Insulin prom inh cell count	HSV augment	HSV augment primary fold
O=C(Cc1n[nH]c(=O)c2ccccc12)NCc1ccc(Cl)cc1	114	.	.	.	.	i	1
O=C(NCc1ccccc1C(F)(F)F)C1CC(c2ccc(C(F)(F)F)cc2)=NO1 (centres undefined)	91	.	.	.	.	i	0.59
C=CCn1c2ccccc2c2nnc(SCC(=O)OCN3C(=O)c4ccccc4C3=O)nc21	104	-1.0	-4	44	84	i	0.95

(more compounds)
SMILES	RGS16-Gao	GALR2 agonist	PKD1 inh	Insulin prom inh	Insulin prom inh cell count	HSV augment	HSV augment primary fold
COCCN(CCOC)C(=O)CCn1c(=O)oc2ccccc21	100	-2.6	8	-50	78	i	0.94
Cc1ccc(C2C(C(=O)c3cccs3)=C(O)C(=O)N2c2nnc(C)s2)cc1 (centres undefined)	101	.	5	.	.	?	.
C/C(=N\NC(=O)c1n[nH]c2c1CCC2)c1ccco1	114	.	.	.	.	i	0.74
CCOC(=O)c1sc2nc(CC(=O)OC)nc(N(C)CCc3ccccn3)c2c1C	100	.	5	-50	65	i	0.93
COC(=O)C1CCN(c2cnccn2)CC1	99	.	1	.	.	i	1.2
CCOC(=O)c1ccc(NC(C)=O)c([N+](=O)[O-])c1	102	.	.	.	.	i	1
N#Cc1c(C(F)(F)F)cc(-c2ccc(F)cc2)[nH]c1=O	103	.	-6	.	.	i	1
Cc1ccc(-n2c(-c3cc(-c4ccco4)[nH]n3)n[nH]c2=S)c(Br)c1	127	.	.	.	.	i	1.1
CC1(c2nnc(-c3ccc(F)cc3)o2)CC(c2c(Cl)cccc2Cl)=NO1 (centres undefined)	101	.	.	.	.	i	1.1
CC(C)C(C(=O)Nc1nccs1)c1ccc(Cl)cc1 (centres undefined)	107	.	-6	.	.	i	0.94
O=C(NNS(=O)(=O)c1ccccc1[N+](=O)[O-])c1ccc(F)cc1	105	.	0	.	.	i	0.95
CCOc1cc(NC(=S)NCc2ccco2)c(OCC)cc1NC(=O)CC(C)C	103	-0.9	-1	.	.	i	1.1
COc1cc2c(cc1NC(=O)C1CCCO1)oc1ccccc12 (centres undefined)	95	-1.2	-8	21	92	i	0.8
NC(=O)c1ccc(Oc2ccc(C(N)=O)cc2)cc1	98	.	.	.	.	i	1.1
CC(C)CCNC(=O)NC(=O)CSc1ncccn1	87	.	3	.	.	i	0.71
CCc1cc2cc(C(=O)Nc3ccc(F)cc3)sc2s1	99	-2.6	-11	-150	154	i	0.88
Cc1cc(C)nc(NS(=O)(=O)c2ccc(NC(=O)C3(c4ccc([N+](=O)[O-])cc4)CCCC3)cc2)n1	102	-1.8	-9	.	.	i	0.99
O=C(Cc1csc(N2CCOCC2)n1)N/N=C/c1ccc(O)c(O)c1O	49	.	-6	.	.	i	1.1
CC(C)CC(=O)Nc1cccc(-c2cn3ccsc3n2)c1	102	-1.8	-5	-81	112	i	0.99
O=C(CCNS(=O)(=O)c1ccc(Cl)cc1)NCc1cccs1	106	.	0	25	44	i	1
O=C(O)c1ccc(NC(=S)NC(=O)c2ccc(-c3ccccc3)cc2)cc1	92	.	0	0	143	i	0.97
COc1ccc(C2CC(c3ccc(Br)cc3)Nc3nc(N)nn32)cc1 (centres undefined)	106	-1.9	-4	57	94	i	0.92
COC(=O)c1ccc(CSc2nnnn2Cc2ccccc2)cc1	98	-1.7	7	-37	110	i	1.1
O=C1CC(c2ccccc2)Cc2nc(N3CCc4ccccc4C3)ncc21 (centres undefined)	111	-1.1	-10	3	82	i	0.77
O=C(/C=C/c1ccc(F)cc1)NCCc1ccc2c(c1)OCCO2	95	-1.4	2	.	.	i	0.95
Cc1ccc(NC(=O)c2cc(S(=O)(=O)c3ccccc3)ccc2Cl)cc1	102	-2.3	2	6	99	i	0.98
Cc1c(Cl)cccc1NC(=S)NCc1cccs1	101	-0.2	-9	-22	92	i	0.79
CC(=O)Nc1nc(-c2ccc3c(c2)CCO3)cs1	104	.	1	48	107	i	1
S=C1NCCOCCOCCOCCNC(=S)NCCOCCOCCOCCN1	158	-0.1	-4	57	48	i	0.99
CCN(CC)CCP(=O)(c1ccccc1)c1ccccc1	96	-1.6	0	-7	132	i	0.74
O=C(NCc1cn2ccsc2n1)c1c(F)cccc1Cl	101	-1.3	-10	.	.	i	0.98
CNC(=S)N1CCN(c2ccc(Cl)c(Cl)c2)CC1	99	.	7	.	.	i	1
COc1ccc(C(CNC(=O)CCOc2ccccc2)N(C)C)cc1 (centres undefined)	107	-2.8	0	11	154	i	0.96
O=C(CNc1ccccc1F)N/N=C/C1CC=CCC1 (centres undefined)	107	.	-4	-56	87	i	0.94
COC(=O)c1cc(-c2ccc(S(=O)(=O)N3CCCC3)cc2)c(C(F)(F)F)s1	101	.	.	.	.	i	1.1
CC(=O)c1c(C)[nH]c(C(=O)OCn2nnc3ccccc3c2=O)c1C	99	-0.8	12	-29	67	i	0.89
c1ccc(CN2CCC(Nc3ncnc4sccc34)CC2)cc1	107	.	-3	.	.	i	0.93
C=CCn1c(SCC(=O)NCCCC)nc2scc(-c3ccco3)c2c1=O	104	-0.5	-17	-5	47	i	1.1
CCCCc1c(O)nc(SCC(=O)NCC2CCCO2)[nH]c1=O (centres undefined)	105	-1.0	-8	0	108	i	0.89
COc1cccc(NC(=O)N2CCN(c3ccc(C(F)(F)F)cn3)CC2)c1	99	-1.0	-7	-43	116	.	.

Quoted at random: 7 compounds from above
SMILES	RGS16-Gao	GALR2 agonist	PKD1 inh	Insulin prom inh	Insulin prom inh cell count	HSV augment	HSV augment primary fold
c1ccc(CN2CCC(Nc3ncnc4sccc34)CC2)cc1	107	.	-3	.	.	i	0.93
COc1cccc(NC(=O)N2CCN(c3ccc(C(F)(F)F)cn3)CC2)c1	99	-1.0	-7	-43	116	.	.
COC(=O)c1ccc(CSc2nnnn2Cc2ccccc2)cc1	98	-1.7	7	-37	110	i	1.1
O=C(NCc1cn2ccsc2n1)c1c(F)cccc1Cl	101	-1.3	-10	.	.	i	0.98
COc1ccc(C2CC(c3ccc(Br)cc3)Nc3nc(N)nn32)cc1 (centres undefined)	106	-1.9	-4	57	94	i	0.92
C=CCn1c(SCC(=O)NCCCC)nc2scc(-c3ccco3)c2c1=O	104	-0.5	-17	-5	47	i	1.1
CC(=O)c1c(C)[nH]c(C(=O)OCn2nnc3ccccc3c2=O)c1C	99	-0.8	12	-29	67	i	0.89

Next part:
SMILES	RGS16-Gao	GALR2 agonist	PKD1 inh	Insulin prom inh	Insulin prom inh cell count	HSV augment	HSV augment primary fold
CC(=O)c1c(C)[nH]c(C(=O)COC(=O)CNS(=O)(=O)c2ccccc2)c1C	103	-2.7	-7	.	.	i	1.1
Nc1nnc(CC(=O)N/N=C/c2cc([N+](=O)[O-])cc(Br)c2O)s1	80	.	-7	.	.	i	0.92
O=C(NC(=S)Nc1ccc2[nH]c(=O)[nH]c2c1)c1cncc(Br)c1	92	.	-1	-76	87	i	0.95
CN(CCCC(=O)Nc1ccncc1)S(=O)(=O)c1ccc(Cl)cc1	102	-2.0	-7	-16	54	i	1
c1ccc(CCN(Cc2ccccc2)Cc2nc(C3CC3)no2)cc1	110	.	0	.	.	i	0.99
CCOc1ccc(C)cc1S(=O)(=O)NC1CCCCC1	86	-0.7	-8	-41	167	i	1
O=C1N(Cc2cccnc2)C[C@@H]2C[C@@H](c3cccc(OCc4ccccc4)c3)N3CCC[C@@]123	99	.	-10	.	.	i	1.1
O=C(CSc1nc2c(cnn2-c2ccc(F)cc2)c(=O)[nH]1)N1CCCCC1	99	-1.8	9	.	.	i	0.88
Cc1ccc(C(=O)Nc2ccccc2C(=O)NCc2ccccc2)cc1	102	-1.8	5	.	.	i	0.86
CCn1c(=N)c(S(=O)(=O)c2ccc(C)cc2)cc2c(=O)n3ccccc3nc21	104	.	3	5	74	i	0.95
CCCNc1nc(N2CCOCC2)nc(N2CCOCC2)n1	100	-0.5	0	-36	157	i	0.94
COc1ccc(C2=NOC3(CC(=O)N(c4ccc(Cl)cc4)C3=O)C2)c(OC)c1 (centres undefined)	73	-0.7	-1	0	164	i	0.97
COc1ccc(CC(=O)NC(C)c2nnc(SCC(=O)Nc3ccccc3)n2C)cc1 (centres undefined)	99	.	1	.	.	i	0.94
CCOC(=O)CCNC(=O)CCNC(=O)C(c1ccccc1)c1ccccc1	92	.	.	.	.	i	1
O=C(NCc1cccnc1)c1cccs1	93	.	-2	.	.	i	0.59
COc1ccc(CN2CNc3c(c(=O)n(C)c(=O)n3C)C2)cc1	102	-0.9	-4	-6	88	i	0.83
CN(C(=O)COC(=O)CCc1nc2ccccc2c(=O)[nH]1)C1CCS(=O)(=O)C1 (centres undefined)	104	.	3	-50	120	i	1
COc1cc2oc(=O)cc(C)c2c(OC)c1OC	95	-1.4	10	23	129	i	0.92
COc1ccc(Nc2ccc(N3C(=O)CC(C)C3=O)cc2[N+](=O)[O-])cc1OC (centres undefined)	101	.	1	18	152	i	0.9
O=C(NCc1ccco1)Nc1cccs1	106	0.0	-9	-27	116	i	1
COC(=O)c1ccc(CSc2nnc3nc(C)cc(C)n23)cc1	101	.	10	.	.	i	0.97
COc1cc(NC(=O)c2cncc(-c3ccc(C#N)cc3)c2)cc(C(=O)Nc2cccc(C(F)(F)F)c2)c1	99	.	.	.	.	i	0.71
C#CC(C)(CC)NC(=O)c1cc2nc(C3CC3)cc(C(F)(F)F)n2n1 (centres undefined)	47	.	-3	-100	29	i	0.96
CCOCCCNC(=O)CSc1ccccc1	97	-0.6	-5	-8	228	i	0.96
Cc1ccccc1/C=C/C(=O)NCC(=O)N1CCC(N(C)C2CCCCC2C)CC1 (centres undefined)	111	.	-2	.	.	i	0.95
Cc1ccc(-c2nn(-c3ccccc3)cc2/C=C(\C#N)c2cccc(C#N)c2)o1	99	-2.7	-8	-164	150	i	1.1
COc1ccc(-c2[nH]ncc2CN(CC2CCC(=O)N2)C(C)C)cc1F (centres undefined)	111	.	-7	.	.	i	1.1

Screening data: PubChem, several laboratories
